High-throughput results from PubChem.
Vaccinia mCherry: vaccinia inhibition (mCherry reporter) | AID 720579 | Potency, µM (titrated, usually from 36.5 µM), without a hit: at the top dose activity change, negative = inhibition, usual class: inhibitors | Vaccinia virus mCherry reporter infection, fluorescence; about a quarter of the inactives have no number | hit rate 0.63% among 310,000; active = well fitted inhibition curve with a large enough effect; inconclusive = small, poorly fitted or top-dose-only effect; inactive = no such curve, though single readings can be large or run the other way; tested in A549 cells; also: nearly all actives have a fitted effect of over 35% in size; inactives centre near -10
VACV Venus inh: inhibitors of vaccinia virus (Venus reporter) | Vaccinia virus Venus reporter expression, fluorescence | Potency, µM (doses to about 36.5 µM), for inactives: at the highest dose activity change, negative = inhibition, hits mostly inhibitors | hit rate 0.46% among 330,000 | AID 720580; active means well fitted inhibition curve with a large enough effect; inconclusive means small, poorly fitted or top-dose-only effect; inactive means no such curve, though single readings can be large or run the other way; tested in A549 cells; also: nearly all actives have a fitted effect of over 30% in size; inactives centre near -10
* hit, by the source's call; i = inactive; ? = inconclusive; / = not tested or not shown; & = joins results of further samples; [ ] = another dose, or the depositor's remark. % is scaled to controls: 0 for no effect and ±100 for the full control effect; potency is read from the fitted curve at half-maximal effect.

Screens in order – Vaccinia mCherry	VACV Venus inh
CC(C)Nc1ccc(Nc2ccnc3cc4ccccc4cc23)cc1
→ ?	?
O=C(CN1C(=O)c2ccccc2S1(=O)=O)NCc1ccccc1
→ 2%	-9%
CCc1ccc(NC(=O)C2CCN(S(=O)(=O)c3cccc(-c4noc(C)n4)c3)CC2)cc1
→ -5%	-9%
CN(C)S(=O)(=O)c1ccc(C(=O)N(Cc2cccnc2)c2nc3c(F)cc(F)cc3s2)cc1
→ ?	?
Cc1ccc(Nc2nc(-c3ccc(O)c(O)c3)cs2)nc1
→ ?	-11%
Cc1ccc(S(=O)(=O)CCN2CCN(c3ccccn3)CC2)cc1
→ ?	?
FC(F)(F)c1ccc(Oc2ccccc2Cl)nc1
→ i	-14%
CCOC(=O)c1ccccc1NC(=O)N(C(C)C)C1CCN(C(C)=O)CC1
→ -17%	-14%
COc1ccc(CCNC(=O)COC(=O)Cc2ccc(OC)cc2)cc1
→ -14%	-4%
O=C(Nc1cc(C(F)(F)F)ccc1N1CCOCC1)c1ccccc1F
→ -13%[1.46 µM]	-14%
Cc1ccc(-n2nc3c(N4CCCC(C(=O)NCCc5ccccc5)C4)nnc(C)c3c2C)cc1 (configuration not stated)
→ -15%	-12%
O=C(Nc1ccc2ccccc2c1)/C(=C\c1ccc2c(c1)OCO2)NC(=O)c1ccco1
→ -25%	-22%
CC(CNC(=O)c1ccc(-c2ccccc2)cc1)CN(C)C (configuration not stated)
→ -10%	-5%
Cc1ccc2nc(-c3cc(N)cc(N)c3)oc2c1
→ -14%	-8%
Cc1cccc(C)c1N(CC(=O)N/N=C/c1cc(Br)c(C)o1)S(C)(=O)=O
→ -7%	-14%
CN(C)c1ccc(CC(=O)N2CCCCC2c2cc(C(=O)Nc3ccccc3Cl)no2)cc1 (configuration not stated)
→ -6%	-12%
CCCn1ccnc1SCC(=O)Nc1c(C)n(C)n(-c2ccccc2)c1=O
→ -11%	0%
CCC(C(=O)NCCC(C)C)N(C(=O)Cn1nnc(-c2ccc(C)cc2)n1)c1cccc(O)c1 (configuration not stated)
→ 1%	-7%
O=C(Nc1nncs1)C1c2ccccc2Oc2ccccc21
→ -12%	-6%
CC(C)(C)c1ccc(NC(=O)CSc2nnc3scc(-c4ccccc4)n23)cc1
→ -25%	-20%
CN(C(=O)CSc1nc2ccccc2c(=O)n1-c1ccccc1F)C1CCS(=O)(=O)C1 (configuration not stated)
→ 0%	-9%
COc1ccccc1Nc1ncccc1[N+](=O)[O-]
→ -14%	-10%
O=c1cc(N2CCc3ccccc32)[nH]c(=O)n1Cc1ccc(F)cc1
→ i	-15%
Cc1ccc2nc(N3CCN(C=O)CC3)nc(-c3ccccc3)c2c1
→ -23%	-18%
CCN1CCN(c2cc(C(C)(C)C)nc3c(-c4ccccc4)c(C)nn23)CC1
→ -25%	-14%
COc1ccc(Cl)cc1S(=O)(=O)NC(C)C(=O)NCCN1CCOCC1 (configuration not stated)
→ -2%	-10%
O=C(Cc1ccccc1)NCCc1cn2ccsc2n1
→ -6%	2%
NS(=O)(=O)c1ccc2nc(NC(=O)c3ccncc3)sc2c1
→ -9%	-1%
CC(=O)c1cnc2nc(SCc3ccc(Cl)cc3)nn2c1C
→ -1%	-11%
CCc1ncc(CN2CCCC(C(=O)Nc3cccc(-c4ccc(F)cc4)c3)C2)cn1 (configuration not stated)
→ -10%	-20%
Cc1c(C)c2ccc(OS(C)(=O)=O)c(C)c2oc1=O
→ -11%	-8%
CCC(=O)Nc1cc(C)c(NC(=O)c2ccco2)cn1
→ -16%	-7%
O=[N+]([O-])c1cc(C2Nc3cccc4cccc(c34)N2)ccc1Cl
→ -23%	-10%
COc1cccc(CNC(=O)Cn2ccc3cc(S(=O)(=O)N4CCC(C)CC4)ccc32)c1
→ -15%	-15%
Cc1cc(C)n(S(=O)(=O)c2cccc([N+](=O)[O-])c2)n1
→ -2%	-9%
O=C(OCc1nnc(-c2ccc(Br)cc2)o1)c1cncc(Br)c1
→ -5%	-6%
CCC(c1nnc(SCC(=O)NNC(=O)c2ccccc2)n1Cc1ccccc1)N(C)C (configuration not stated)
→ i	-6%
Cc1nn(-c2ccccc2)c(C)c1C=O
→ -4%	7%
COCC(=O)N(C)C[C@@H]1Oc2ncc(Br)cc2C(=O)N([C@@H](C)CO)C[C@H]1C
→ -6%	-16%
Cc1cccc(C)c1NC(=O)C(c1ccnc2ccccc12)N1CCN(CCN(C)C)CC1 (configuration not stated)
→ -12%	-11%
CSc1cccc(NC(=O)CN(C)S(=O)(=O)c2cnc[nH]2)c1
→ -12%[7.34 µM]	-9%[7.34 µM]
C=CCc1cccc(C2Nc3ccccc3C(=O)N2O)c1O (configuration not stated)
→ -10%[1.46 µM]	-11%
CCN(CC(=O)Nc1c(F)cccc1F)C(=O)c1cc(S(=O)(=O)N2CCOCC2)ccc1N1CCCC1
→ -22%	-13%
COc1cc2c(cc1OC)C(C)N(C(=O)Nc1ccccc1)CC2 (configuration not stated)
→ ?	-27%
CCOC(=O)N1CCN(C(=O)C[C@@H]2C[C@@]3(C(=O)OC)CC(C)(C)CC=C3N(Cc3cccc4ccccc34)C2=O)CC1
→ ?	?
O=C(c1ccc2c(c1)OCO2)N1CCOc2ccc(CN3CCC(Oc4cccnc4)CC3)cc2C1
→ -11%	-7%
CCOC(=O)c1c(NC(=O)CN2CCCCC2)sc2c1CCCC2O (configuration not stated)
→ -23%	-19%
COc1ccccc1C1NC(=O)c2n[nH]c(-c3cccs3)c21 (configuration not stated)
→ -15%	-16%
CCCc1nc2c3ccccc3ccn2c1Cc1ccc(C)cc1
→ i	6%
CC1(c2nnc(-c3ccncc3)o2)CC(c2ccc(Cl)cc2)=NO1 (configuration not stated)
→ ?	-27%

(list continues)
Screens in order – Vaccinia mCherry	VACV Venus inh
CSc1nc2c(c(C(F)(F)F)n1)CC(C)CC2 (configuration not stated)
→ /	-3%
COc1ccc(C(CNC(=O)c2cc3c(s2)CCCC3)N2CCOCC2)cc1 (configuration not stated)
→ i	-6%
Cc1ccc(OCC(=O)c2ccc3c(c2)CCCC3)cc1C
→ /	-14%
Cc1cc(C)cc(N(C(=O)Cn2nnc(-c3ccccc3)n2)C(C(=O)NC2CCCCC2)c2ccccn2)c1 (configuration not stated)
→ -8%	-15%
CCOC(=O)C(Sc1ncc(C#N)c(N)n1)C(C)C (configuration not stated)
→ /	4%
Cc1ccc(C(C)C)c(OCCCN2CC(C)OC(C)C2)c1 (configuration not stated)
→ i	-3%
CCC(=O)Oc1ccc(NC(=O)c2ccco2)cc1
→ -5%	-16%
CC(=O)Nc1ccc(S(=O)(=O)N2CCNC(=O)C2)cc1
→ -1%	-10%
Clc1ccc[n+](CCCCC[n+]2cccc(Cl)c2)c1
→ -15%	-8%
CC(C)c1nc(Cl)c(C#N)c2c1CCC2
→ -14%	-10%
CCOC(=O)c1ccc(NC(=O)C(=O)NCCc2ccc(OC)cc2)cc1
→ -13%&-6%	8%&3%
CCCCc1cc(=O)oc2c(C)c(OCc3nn[nH]n3)ccc12
→ i	-5%
CCOc1ccccc1NC(=O)NCc1ccco1
→ -6%	-16%
C/C(CC(=O)Nc1ccc(N(C)C)cc1)=N\NC(=O)c1cnccn1
→ i	-15%
O=C(C1CC1)N1CCN(c2nc3c(Cl)cccc3s2)CC1
→ i	-17%
COc1ccc(N2C(c3ccsc3)=Cc3cc4c(cc3C2c2c[nH]c3ccccc23)OCO4)cc1 (configuration not stated)
→ 15%	-4%
COC(=O)[C@@]1(Cc2ccc(OC)cc2)[C@H]2c3cc(C(=O)N4CCCC4)n(CCc4c[nH]c5ccccc45)c3C[C@H]2CN1C(=O)c1ccccc1
→ -12%	-18%
C[C@H](CO)N1C[C@H](C)[C@@H](CN(C)Cc2ccc(C(=O)O)cc2)Oc2ccc(NS(=O)(=O)c3cn(C)cn3)cc2C1=O
→ -9%	-7%
Cc1ccccc1Cn1c(C)c(C(=O)NCc2cccc(Cl)c2)sc1=O
→ -7%	8%
CCOc1ccc(C(=O)NCC(c2ccc3c(c2)OCO3)N2CCN(C)CC2)cc1 (configuration not stated)
→ 2%	3%
CCCCn1c(SCC(=O)NCc2ccco2)nc2cc(S(N)(=O)=O)ccc21
→ /	2%
COc1ccc(NCc2nnc(SCC(=O)NCc3ccco3)n2-c2ccccc2OC)cc1
→ -16%	-11%
Cc1cc(NC(=O)CSc2nccn2-c2ccc([N+](=O)[O-])cc2)no1
→ i	-7%
O=C(O)c1ccccc1CSc1nnnn1-c1ccccc1
→ -1%	-6%
O=C(CN1C(=O)NC2(CCCC2)C1=O)Nc1ccc(Cl)cc1C(F)(F)F
→ -24%	-16%
CC1Cc2ccccc2N1C(=O)COC(=O)CNC(=O)c1ccc(Br)o1 (configuration not stated)
→ -6%	1%
COc1ccccc1NC(=O)CSc1nc2c(oc3ccccc32)c(=O)n1-c1ccc(C)cc1
→ -14%	-2%
C#CCCCCCCC#CCN(C)C
→ -17%	-18%
O=C(Nc1ccc(N2CCCCC2)cc1)C(Cl)c1ccccc1 (configuration not stated)
→ -15%	-15%
O=C(NNc1cccc(Cl)n1)Nc1ccccc1F
→ 4%	6%
Cc1ccc(CNC(C)c2ccccc2)cc1 (configuration not stated)
→ i	-18%
COc1cccc(C(=O)NNC(=O)CCc2ccccc2)c1
→ -17%	2%
CC(C)CN(C(=O)CSc1nc(-c2ccccc2)cn1N)c1c(N)n(Cc2ccccc2)c(=O)[nH]c1=O
→ -14%	19%
O=S(=O)(NCCc1csc(-c2cccnc2)n1)c1cccs1
→ -24%	-4%
CCCCN1CC(c2nc3ccccc3n2CCCCOc2ccccc2C)CC1=O (configuration not stated)
→ -20%	-21%
Cc1ccc2c(-c3ccc([N+](=O)[O-])cc3)cc(=O)[nH]c2c1
→ -5%	-11%
CC1(C)CC(=O)C=C(Nc2ccc3c(c2)OCCO3)C1
→ /	-14%
COc1cc(NC(=O)CC(C)S(=O)(=O)c2ccc3c(c2)CCN3C(C)=O)cc(OC)c1OC (configuration not stated)
→ -1%	2%
COc1ccc(NC(=O)/C=C\C(=O)N(c2ccc(C(C)C)cc2)C(C(=O)NCc2ccco2)c2ccc(C)cc2)cc1 (configuration not stated)
→ ?	?
Cc1onc(-c2ccccc2)c1C(=O)N/N=C/c1cc2c(cc1Br)OCO2
→ -3%	-23%
CCNc1nc(NCC)n2c(SCC(=O)N3CC4(C)CC3CC(C)(C)C4)nnc2n1 (configuration not stated)
→ i	-8%
CC(C(=O)O)c1ccc(-c2ccccc2)c(F)c1 (configuration not stated)
→ -7%&-8%	-10%&-9%&-1%
COc1ccccc1CNC(=O)CN1NS(=O)(=O)c2ccccc2C1=O
→ i	-7%
O=Cc1ccc(OCCN2CCCC2=O)cc1
→ -11%	-19%
CC1=CC(C)(C)NC(=S)N1c1cccc(Cl)c1
→ i	0%
Cc1cc(OCC(=O)Nc2ccc(N3CCCC3)cc2)cc(C)c1Cl
→ /	-9%
Cc1nc(NC(=O)/C=C/c2ccccc2)sc1C(=O)Nc1cccc(Cl)c1
→ -16%	-13%
O=C(Nc1ccc(F)cc1)c1ccccc1NC(=O)C1CCCCC1C(=O)O (configuration not stated)
→ -15%	-20%
O=C(COc1ccc(Cl)cc1)NCCSCc1cccc(Cl)c1
→ -4%	-10%
C/C(CC(=O)Nc1ccc(N(C)C)cc1)=N\NC(=O)C(=O)NCc1ccccc1
→ ?	-17%

Next part.
Screens in order – Vaccinia mCherry	VACV Venus inh
COc1ccccc1-c1nc(C#N)c(N2CC(C)CC(C)C2)o1 (configuration not stated)
→ i	-12%
COc1ccc(Cl)cc1N1Cc2ccccc2C1
→ -14%	-13%
CN(NC(=O)c1ccc(Cl)cc1Cl)C1=NS(=O)(=O)c2ccccc21
→ i	-12%
Cc1ccc(-c2csc3ncn(-n4c(C)ccc4C)c(=O)c23)o1
→ /	-15%
Cc1ccc(C2Cc3cc(O)c(O)cc3CN2)cc1 (configuration not stated)
→ -19%[7.34 µM]	-5%[7.34 µM]
Cc1cccc(NNC(=S)Nc2ccccc2)c1
→ -10%	-14%
Cc1cccc2cc(C#N)c(N3CCCC3)nc12
→ -21%	-18%
CSc1nnc(-c2ccccc2)n1N
→ -1%	-2%
CCCCn1c(SCC(=O)Nc2cccc(C)n2)nnc1-c1ccco1
→ -17%	-7%
Cc1sc2c(=O)n3c(nc2c1C(=O)NCCCN1CCOCC1)CCCCC3
→ /	-15%
CCn1c(SC)nnc1-c1nnc(SC)n1CC
→ /	-16%
COC(=O)C1=C(c2ccc(C(C)=O)cc2)C[C@@H]2CC[C@H]1N2C(=O)N1CCC(O)CC1
→ i	1%
